Bioassay records from PubChem BioAssay.
ABHD5-PLIN5 inh – inhibitors of human ABHD5-perilipin-5 interaction | Split G. princeps luciferase complementation, luminescence, 4 h | inhibition, % at 4 µM | actives 0.78% (n = 360,000);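 active = inhibition above the mean inhibition across every tested compound plus 3 SD, cut at about 22% in these data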;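 note: 0% = DMSO only wells and the 100% control is not disclosed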
aDG glyco act – alpha-DG glycosylation activation. Pro5-aDG cells, alpha-DG glycosylation AlphaScreen (IIH6); 0% Pro5, 100% B10-LARGE cell signal. activation, % at 10 µM. actives 0.22% (n = 360,000);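 active = activation of at least 8% versus controls, or a plate z-score of at least 8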;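 note: Pro5 are CHO cells carrying HIG-tagged alpha-DG that lacks glycosylation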
ABCB6 inh MLPCN – human ABCB6 transporter inhibition; Q9NP58; K562-ABCB6 porphyrin accumulation, flow cytometry, 1 h; hits give low values; fluorescence ratio to DMSO, % at 10 µM; actives 0.19% (n = 360,000); AID 602162;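 active = fluorescence ratio to DMSO below 75%, the collection mean minus 3 SD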;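 note: signal is porphyrin accumulated inside mitochondria; 100% equals median channel fluorescence of DMSO control wells; lower ratio means ABCB6 inhibition with less porphyrin fluorescence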
Target sequence (Q9NP58 whole entry, looked up): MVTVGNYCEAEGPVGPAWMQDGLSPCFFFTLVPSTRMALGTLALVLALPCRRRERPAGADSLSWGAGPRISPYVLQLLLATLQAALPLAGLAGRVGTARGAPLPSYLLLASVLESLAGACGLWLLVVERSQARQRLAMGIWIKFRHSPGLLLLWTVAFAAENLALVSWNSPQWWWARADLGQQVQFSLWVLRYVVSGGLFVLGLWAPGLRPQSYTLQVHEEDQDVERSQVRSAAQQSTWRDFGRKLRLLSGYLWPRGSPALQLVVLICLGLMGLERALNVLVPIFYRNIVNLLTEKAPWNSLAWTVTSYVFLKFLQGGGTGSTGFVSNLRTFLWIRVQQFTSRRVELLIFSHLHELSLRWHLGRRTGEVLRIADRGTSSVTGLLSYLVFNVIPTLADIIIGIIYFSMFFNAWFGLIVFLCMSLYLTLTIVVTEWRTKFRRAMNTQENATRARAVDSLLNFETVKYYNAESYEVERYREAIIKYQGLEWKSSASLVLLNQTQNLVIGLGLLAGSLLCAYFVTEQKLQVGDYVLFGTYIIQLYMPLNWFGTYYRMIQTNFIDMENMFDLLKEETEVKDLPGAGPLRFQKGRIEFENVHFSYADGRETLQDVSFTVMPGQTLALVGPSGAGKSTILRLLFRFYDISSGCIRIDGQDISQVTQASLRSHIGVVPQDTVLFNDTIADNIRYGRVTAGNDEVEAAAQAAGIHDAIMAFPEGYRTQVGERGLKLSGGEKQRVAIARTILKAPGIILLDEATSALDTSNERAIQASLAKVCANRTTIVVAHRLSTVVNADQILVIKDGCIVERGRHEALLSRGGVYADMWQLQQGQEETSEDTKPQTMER
Cardio protect – protects H9c2 cardiomyocytes from peroxide injury | H2O2 injury protection, ATPLite, 2 h | protection from H2O2 cell death, % at 20 µM | actives 0.63% (n = 360,000) | AID 588492;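 active = compounds giving at least 50% protection of heart cells from peroxide-induced death in the single-dose screen, raw or plate-pattern-corrected value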;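 note: 0% = DMSO wells with peroxide and 100% = DMSO wells without peroxide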
Glyco luc inh – N-linked glycosylation inhibition | AID 588692 | actives 0.23% (n = 360,000) | D54 ERlucT glycosylation luciferase reporter, 24 h; percent of 100 nM tunicamycin response | reporter increase, % at 12.5 µM;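 active = mean luciferase reporter signal, scaled so untreated is 0 and the glycosylation-blocking control 100, at or above a set limit in every replicate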;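 note: luciferase carries N-glycosylation sites so blocking glycosylation raises the light; 0% = median of neutral control wells and 100% = median of 100 nM tunicamycin wells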
Exocytosis inh – blocks lytic granule exocytosis | TALL-104 LAMP-1 surface exposure, flow cytometry; cells stimulated with thapsigargin and PMA | actives 0.66% (n = 360,000) | inhibition, % at 10 µM;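 active = inhibition above about 55%, limit read from the data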
HTR2A ag – mouse HTR2A agonism via beta-arrestin recruitment; activation, % at 7.6 µM; actives 0.66% (n = 360,000); CHO-K1 mHTR2A beta-arrestin complementation, luminescence; percent of 30 µM serotonin response;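 active = activation above a run cutoff, the mean activation of all tested compounds plus 3 SD, cut at about 14% in these data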;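 note: 0% = plate median of compound wells and 100% = 30 µM serotonin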
iPSC survival up – hiPSC single-cell survival enhancement; ATPlite luminescence; 100% = ROCK inhibitor wells, 0% = DMSO; survival enhancement, % at 20 µM; actives 0.044% (n = 360,000); in the data active = survival enhancement above about 18%;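 note: cells exposed to compounds for 16 hours before the ATP read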
Starred values were filed as active, the others as inactive; & = joins results of further samples. These rows are one share of the data, so the mix of outcomes need not match the whole.

SMILES	ABHD5-PLIN5 inh	aDG glyco act	ABCB6 inh MLPCN	Cardio protect	Glyco luc inh	Exocytosis inh	HTR2A ag	iPSC survival up
COC(=O)C1C(O)CCC2CN3CCc4c([nH]c5ccccc45)C3CC21 (centres undefined)	1	0.2	115	5	-1	-4	-1	-2.7
Nc1ncnc2c1ncn2[C@@H]1O[C@H](COP(=O)(O)OP(=O)(O)OP(=O)(O)O)[C@@H](O)[C@H]1O	-2	0.2	100	14	0	-2	-4	3.7
COc1ccc(CCN2CCC(Nc3nc4ccccc4n3Cc3ccc(F)cc3)CC2)cc1	6	0.1	104	-15	-4	14	3	-3.4
Nc1ccn(C2OC(CO)C(O)C2O)c(=O)n1 (centres undefined)	-3	0.2	103	0	-4	-8	3	-1.1
COc1ccc(Cl)cc1C(=O)NCCc1ccc(S(=O)(=O)NC(=O)NC2CCCCC2)cc1	-7	-0.2	99	-6	-1	0	-3	2.1
CNC(CC(C)C)C(=O)NC1C(=O)NC(CC(N)=O)C(=O)NC2C(=O)NC3C(=O)NC(C(=O)NC(C(=O)O)c4cc(O)cc(O)c4-c4cc3ccc4O)C(O)c3ccc(c(Cl)c3)Oc3cc2cc(c3OC2OC(CO)C(O)C(O)C2OC2C[C@](C)(N)C(O)C(C)O2)Oc2ccc(cc2Cl)C1O (some centres undefined)	6	0.4	95	-3	1	2	2	-0.4
CN(C)CCCN1c2ccccc2Sc2ccc(Cl)cc21	5&18	0.2&0.4	101&94	27&13	3&4	13&1	2&-4	0.2&-3.6
COc1ccc(CCN(C)CCCC(C#N)(c2ccc(OC)c(OC)c2)C(C)C)cc1OC (centres undefined)	-1	-0.1	94	2	-2	-5	-8	-1.6
Nc1nc2c(ncn2COCCO)c(=O)[nH]1	-1	0.0	103	16	1	4	-4	-1.7
CCN(CC)CCNC(=O)c1ccc(N)cc1	7	0.0	99	9	1	8	0	9.6
CNC(CC(C)C)C(=O)NC1C(=O)NC(CC(N)=O)C(=O)NC2C(=O)NC3C(=O)NC(C(=O)NC(C(=O)O)c4cc(O)cc(O)c4-c4cc3ccc4O)C(O)c3ccc(c(Cl)c3)Oc3cc2cc(c3OC2OC(CO)C(O)C(O)C2OC2CC(C)(N)C(O)C(C)O2)Oc2ccc(cc2Cl)C1O (centres undefined)	1	0.0	88	-6	1	2	-3	-0.5
COC(=O)[C@H]1[C@H]2C[C@H]3c4[nH]c5ccccc5c4CCN3C[C@H]2CC[C@@H]1O	-2	-0.2	100	-3	1	-4	-4	2.1
Cc1cc(C(=O)COC(=O)c2ccco2)c(C)n1Cc1ccco1	8	0.8	103	-29	-13	4	0	-0.1
NS(=O)(=O)c1cc2c(cc1Cl)NC=NS2(=O)=O	-2	0.1	95	12	0	0	9	0.7
CSc1ccc(C(=O)c2[nH]c(=O)[nH]c2C)cc1	-11	-0.2	105	5	1	3	0	-0.1
CCN(Cc1ccncc1)C(=O)C(CO)c1ccccc1 (centres undefined)	7	0.1	92	5	1	-1	-2	-0.7
CC(C)(Sc1cc(C(C)(C)C)c(O)c(C(C)(C)C)c1)Sc1cc(C(C)(C)C)c(O)c(C(C)(C)C)c1	7	0.2	102	1	-4	2	-5	1.7
O=c1[nH]cnc2c1ncn2C1CCC(CO)O1 (centres undefined)	-6	-0.1	98	9	1	-8	-4	1.0
CC(=O)O[C@H]1C(=O)[C@@]2(C)[C@H]([C@H](OC(=O)c3ccccc3)[C@]3(O)C[C@H](OC(=O)[C@H](O)[C@@H](NC(=O)c4ccccc4)c4ccccc4)C(C)=C1C3(C)C)[C@]1(OC(C)=O)CO[C@@H]1C[C@@H]2O	4	0.1	92	-2	12	-3	11	-2.0
CCS(=O)(=O)CCn1c([N+](=O)[O-])cnc1C	4	-0.1	101	4	2	-6	0	-0.6

Single records (already shown). Screens in order: ABHD5-PLIN5 inh | aDG glyco act | ABCB6 inh MLPCN | Cardio protect | Glyco luc inh | Exocytosis inh | HTR2A ag | iPSC survival up
Shown for Nc1ccn(C2OC(CO)C(O)C2O)c(=O)n1 (centres undefined) : -3 | 0.2 | 103 | 0 | -4 | -8 | 3 | -1.1
Shown for Cc1cc(C(=O)COC(=O)c2ccco2)c(C)n1Cc1ccco1 : 8 | 0.8 | 103 | -29 | -13 | 4 | 0 | -0.1
Shown for COC(=O)[C@H]1[C@H]2C[C@H]3c4[nH]c5ccccc5c4CCN3C[C@H]2CC[C@@H]1O : -2 | -0.2 | 100 | -3 | 1 | -4 | -4 | 2.1
Shown for CCN(CC)CCNC(=O)c1ccc(N)cc1 : 7 | 0.0 | 99 | 9 | 1 | 8 | 0 | 9.6

(list continues)
SMILES	ABHD5-PLIN5 inh	aDG glyco act	ABCB6 inh MLPCN	Cardio protect	Glyco luc inh	Exocytosis inh	HTR2A ag	iPSC survival up
CC(C)OC(=O)C(C)(C)Oc1ccc(C(=O)c2ccc(Cl)cc2)cc1	-7	0.2	98	-24	-2	-5	-5	-0.5
CCC(C)(C)C(=O)O[C@H]1C[C@@H](C)C=C2C=C[C@H](C)[C@H](CC[C@@H]3C[C@@H](O)CC(=O)O3)[C@H]21	-1	0.1	101	-6	45*	-2	3	1.6
CSc1ccc2c(c1)N(CCC1CCCCN1C)c1ccccc1S2 (centres undefined)	13	0.3	94	-16	7	9	-9	-3.0
CN1[C@@H]2CC(OC(=O)[C@H](CO)c3ccccc3)C[C@H]1[C@@H]1O[C@@H]12 (some centres undefined)	-4&-3&-6&4	-0.2&-0.3&-0.1&-0.1	98&109&104&91	-7&1&4&-2	1&0&-2&1	0&-2&0&1	0&3&-1&5	0.1&-0.4&-2.4&0.2
CC#C[C@]1(O)CC[C@H]2[C@@H]3CCC4=CC(=O)CCC4=C3[C@@H](c3ccc(N(C)C)cc3)C[C@@]21C	3	-0.5	101	21	-4	5	4	-2.4
CN(C)c1nc(N(C)C)nc(N(C)C)n1	11	0.9	100	4	-1	-2	-1	-0.1
O=c1n(CCCN2CCN(c3cccc(Cl)c3)CC2)nc2ccccn12	-7	-0.1	102	-1	-1	-8	2	-2.8
CC(=O)NCCc1ccc(C(=O)COC(=O)C2CCCCC2)cc1	-4	0.6	95	-14	1	-11	4	1.8
COc1cc([C@@H]2c3cc4c(cc3[C@@H](O[C@@H]3O[C@@H]5CO[C@@H](C)O[C@H]5[C@H](O)[C@H]3O)[C@H]3COC(=O)[C@H]23)OCO4)cc(OC)c1O	0	0.0	97	6	12	1	-2	-4.5
COC1=CC(=O)CC(C)C12Oc1c(Cl)c(OC)cc(OC)c1C2=O (centres undefined)	-8	0.0	94	9	-2	4	-6	3.5
CCOC(=O)[C@H](CCc1ccccc1)N[C@H]1CCc2ccccc2N(CC(=O)O)C1=O	11	0.0	99	3	4	0	2	0.3

Five entries already listed, sorted by heavy-atom count, high to low.
SMILES	ABHD5-PLIN5 inh	aDG glyco act	ABCB6 inh MLPCN	Cardio protect	Glyco luc inh	Exocytosis inh	HTR2A ag	iPSC survival up
COc1ccc(CCN(C)CCCC(C#N)(c2ccc(OC)c(OC)c2)C(C)C)cc1OC (centres undefined)	-1	-0.1	94	2	-2	-5	-8	-1.6
CC#C[C@]1(O)CC[C@H]2[C@@H]3CCC4=CC(=O)CCC4=C3[C@@H](c3ccc(N(C)C)cc3)C[C@@]21C	3	-0.5	101	21	-4	5	4	-2.4
COC1=CC(=O)CC(C)C12Oc1c(Cl)c(OC)cc(OC)c1C2=O (centres undefined)	-8	0.0	94	9	-2	4	-6	3.5
CSc1ccc(C(=O)c2[nH]c(=O)[nH]c2C)cc1	-11	-0.2	105	5	1	3	0	-0.1
Nc1nc2c(ncn2COCCO)c(=O)[nH]1	-1	0.0	103	16	1	4	-4	-1.7
